# eIF4H FP inh = inhibitors of RNA binding by human eIF4H; AID 2012; inhibition, % at 35 µM; actives 0.94% (n = 290,000); eIF4H fluorescence polarization binding assay; Q15056;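 active = 50% or more with normal probe brightness, or confirmed in later tests; inconclusive = above 50% with abnormal brightness, or retests that disagree; inactive = below 50% or failed in later tests; about a fifth of its hits are not listed in these tables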;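 also: calls also rest on retests at 20 µM and on dose response follow-up; 0% = protein and probe with vehicle and 100% = probe without protein; strong numbers were not always called active; many hits fall short of the cut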
# Env fusion inh = inhibitors of HIV Env-mediated cell fusion; HeLa-JRFL Env/CEM21 cell fusion, luciferase; inhibition, % at 12.3 µM; AID 651610; actives 1.1% (n = 360,000);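 active = mean replicate inhibition score of at least 50 and every replicate individually at or above 50; inconclusive = only one of the two criteria met; inactive = mean below 50 and not all replicates reaching 50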;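 also: 0% = plate neutral controls and 100% = maraviroc near 300 nM; one replicate is shown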
# MT1-MMP act inh = MT1-MMP (human) activation inhibition; HT1080 RFP-PRO-GFP cells, GFP/RFP ratio fluorescence, overnight; percent of plate control window, DMSO zero; GFP/RFP ratio change, % at 20 µM; actives 0.061% (n = 360,000); AID 651647;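 active = GFP/RFP ratio change of at least 30% with cell ATP level not reduced by more than half and red fluorescence within 50% of control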; also: strong numbers were not always called active
#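 Material: RFP-PRO-GFP reporter HT1080 cells. Dosing: single-point 20 µM compound, 1% DMSO. Controls: DMSO and RFP-L50D-GFP cell wells. Timing: cells overnight before dosing, compound overnight, 37 °C, 5% CO2. Measure: GFP/RFP fluorescence ratio.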
# PABP FP inh = blocks human PABP binding to poly(A) RNA | P11940 | fluorescence polarization | inhibition, % at 35 µM | actives 1% (n = 290,000) | AID 2014;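 active = 50% or more with normal probe brightness, or confirmed in later tests; inconclusive = above 50% with abnormal brightness, or retests that disagree; inactive = below 50% or failed in later tests; about a fifth of its hits are not listed in these tables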;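 also: calls also rest on retests at 20 µM and on dose response follow-up; controls were probe without protein and protein plus probe with vehicle; some compounds called inactive have numbers as strong as hits; many hits fall short of the cut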
# Target sequence (P11940 whole entry, looked up): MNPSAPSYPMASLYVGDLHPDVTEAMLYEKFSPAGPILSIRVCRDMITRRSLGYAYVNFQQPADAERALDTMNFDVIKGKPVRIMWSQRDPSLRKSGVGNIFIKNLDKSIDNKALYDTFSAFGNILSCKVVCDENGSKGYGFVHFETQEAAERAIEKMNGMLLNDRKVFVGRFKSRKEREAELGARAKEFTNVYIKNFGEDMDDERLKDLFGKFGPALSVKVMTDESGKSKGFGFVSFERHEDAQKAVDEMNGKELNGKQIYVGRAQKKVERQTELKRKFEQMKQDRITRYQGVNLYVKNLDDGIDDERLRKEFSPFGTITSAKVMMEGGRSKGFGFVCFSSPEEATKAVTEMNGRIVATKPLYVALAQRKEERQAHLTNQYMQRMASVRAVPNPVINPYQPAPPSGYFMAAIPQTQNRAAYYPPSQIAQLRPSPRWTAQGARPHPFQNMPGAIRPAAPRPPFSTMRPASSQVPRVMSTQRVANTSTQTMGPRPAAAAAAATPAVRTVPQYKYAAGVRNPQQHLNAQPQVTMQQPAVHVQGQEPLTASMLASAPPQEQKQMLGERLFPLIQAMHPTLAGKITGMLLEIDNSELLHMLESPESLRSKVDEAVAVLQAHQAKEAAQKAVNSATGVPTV
# Rce1 inh = blocks yeast Ras-converting enzyme. Q03530. yeast membranes, quenched prenylated peptide cleavage fluorescence. calls only. actives 0.27% (n = 290,000). AID 2563;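 active = fall in fluorescence gain of 50% or more versus controls, with final raw signal at or below 3038400; inconclusive = same 50% fall but final raw signal above 3038400; inactive = fall in fluorescence gain under 50%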;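 also: plate controls were neutral control wells for no effect and wells lacking membranes for full effect; tested at 10 µM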
# UUG fidelity = alters start codon recognition fidelity in yeast; activity score, % at 18.7 µM; S. cerevisiae UUG-firefly luciferase reporter, luminescence/redox ratio; actives 0.13% (n = 350,000);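 active = replicate mean at a twofold rise or more, about +100% in these data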;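 also: firefly luciferase made from a UUG start codon reports start codon fidelity; reporter light over untreated wells divided by growth signal over untreated wells; some hits fall short of that in this replicate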
# CSC inhib = blocks cancer stem cells | actives 1.1% (n = 300,000) | cancer stem cell-like cells viability, luminescence | AID 2717 | inhibition, % at 7.5 µM;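 active = mean at 75% or more and at least half the replicates too; inconclusive = mean and replicates disagree; tested in HMLE shEcad cells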;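 also: 0% = median of negative and 100% = median of positive control wells; the first replicate is given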
# MT1-MMP act inh RFP = recorded beside MT1-MMP act inh, whose call it bears; RFP signal change, %; measured here: RFP expression control read;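 0 = vehicle wells; hits needed this value within 50% of zero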
# * marks the source's active call; other numbers are inactive results; i = inactive; ? = inconclusive; . = no result given.
mol	Rce1 inh	eIF4H FP inh	MT1-MMP act inh	CSC inhib	UUG fidelity	MT1-MMP act inh RFP	PABP FP inh	Env fusion inh
COc1ccc(Cc2nc3ccc(C(=O)NCc4cc(C)no4)cc3o2)cc1	i	-9	-1	-10	-15	-4	0	.
NCCCC[C@H]1CNC(=O)C(=O)N1CCCCC1CCCCC1	i	-4	-1	-4	2	2	-16	6
Cn1cc(C(=O)Nc2ccc(Cl)c(Cl)c2)cn1	i	.	-15	-5	.	-7	.	-12
COc1ccccc1-c1csc(Nc2ccc(Oc3ccccc3)cc2)n1	.	.	3	.	-15	-3	.	-19
CCOC(=O)[C@H]1[C@H]2COc3ccc(Cl)cc3[C@@H]2N2C(=O)[C@@H](C)NC(=O)[C@@]12C	.	.	-2	-23	-3	-1	.	-1
Cc1c(CC(=O)N[C@@H](C)C(=O)O)c(=O)oc2c(C)c3occ(-c4ccccc4)c3cc12	i	50	14	3	-9	3	28	11
C/C(CC(=O)N1CCN(C=O)CC1)=N\NC(=O)c1ccc([N+](=O)[O-])cc1	i	-10	10	-14	.	3	-6	0
O=C(NC(=O)c1ccccc1)Nc1ccccn1	i	-7	-3	53	-79	-4	-6	68*
COc1ncccc1C(=O)N1CCCC(N2CCN(c3cccc(Cl)c3)CC2)C1 (stereo not drawn)	i	-1	4	-9	10	-5	8	12
Cc1cc(Cl)ccc1OCC(=O)N(Cc1ccco1)C1CCS(=O)(=O)C1 (stereo not drawn)	i	-8	0	-13	-11	1	1	12
COc1ccc(CCNC(=S)Nc2cccc(C)c2C)cc1	i	-11	-2	-6	-31	-6	-3	.
CN(C)CCCN1C(=O)CSC1c1ccccc1 (stereo not drawn)	i	-7	0	11	-27	3	-11	6
CCOC(=O)C1CCCN(C(=O)c2cc(-c3ccccc3)cs2)CC1 (stereo not drawn)	.	.	-2	.	-14	1	.	-7
O=C(c1nn2c(C(F)(F)F)cc(-c3cccs3)nc2c1Cl)N1CCCc2ccccc21	i	2	-17	18	.	-8	-7	45
CCOC(=O)C1=C(C)OC(N)=C(C#N)C1c1ccc(OC)c(C)c1OC (stereo not drawn)	i	16	-1	-7	-18	3	16	-89
CC(C)(C)NC(=S)Nc1cccc(C(F)(F)F)c1	i	-6	-1	-2	-7	-11	46	14
CCCCNC(=S)Nc1ccc(Oc2ccccc2)cc1	i	3	1	2	-40	2	-3	1
Cc1ccc(C(C(=O)NCc2ccco2)N(C(=O)CNC(=O)c2cccs2)c2ccc(C)cc2C)cc1 (stereo not drawn)	i	2	2	12	-15	-5	-6	.
COc1cccc(N2CCN(C(=O)CCc3nnc4ccc(N5CCOCC5)nn34)CC2)c1	i	1	2	-13	-12	8	-3	-13
CCCS(=O)(=O)NC(=O)C1(C)CCCN(C(=O)c2ccc3ccccc3c2)C1 (stereo not drawn)	.	.	3	.	1	5	.	10
Cc1ccc(C(=O)NC(=S)Nn2cnnc2)cc1	i	-4	-3	-5	-15	4	2	14
N#Cc1c(NC(=O)COC(=O)c2ccc(S(=O)(=O)N3CCCC3)cc2)sc2c1CCCCC2	i	5	-1	.	-13	1	-3	-5
CSc1ncccc1C(=O)OCC(=O)NCc1ccc2c(c1)OCO2	i	-11	-2	0	.	2	0	-32
Cc1ccc(-c2nc(SCC(=O)NCC3CCCO3)c(-c3ccc(C)cc3)[nH]2)cc1 (stereo not drawn)	i	0	-2	.	-16	-4	9	-6
Cc1noc(C)c1S(=O)(=O)NC(=O)C1(C)CCN1C(=O)Cc1ccc(-c2ccccc2)cc1 (stereo not drawn)	.	.	2	.	1	4	.	-4

mol	Rce1 inh	eIF4H FP inh	MT1-MMP act inh	CSC inhib	UUG fidelity	MT1-MMP act inh RFP	PABP FP inh	Env fusion inh
CNCc1c(OCc2ccc(F)cc2)ccc2ccccc12	i	-5	3	12	-9	-1	-7	15
CCOC(=O)Cc1nnc(NC(=O)c2ccco2)s1	i	-8	-7	4	16	0	10	.
COc1ccc(C2=NN(C(=O)CSc3nnc(-c4ccccc4F)o3)C(c3ccco3)C2)cc1 (stereo not drawn)	i	-13	2	32	.	-3	-18	-9
COc1ccc(Nc2nnc(SCC3CCCO3)s2)cc1 (stereo not drawn)	i	2	0	-2	.	0	12	-6
CC(=O)c1cccc(NC(=O)COC(=O)c2ccccn2)c1	i	-5	2	-6	-25	4	5	-1
O=C(CCCN1C(=O)/C(=C/c2ccccc2)SC1=S)Nc1ccc(C(=O)O)c(O)c1	i	1	1	1	-6	5	12	0
COc1ccc(OC)c(C(=O)/C=C/c2ccccc2C(F)(F)F)c1	i	-4	3	99*	-18	-27	-12	-44
COc1ccc(Cn2c(=O)n(Cc3ccco3)c(=N)c3c4c(sc32)COC(C)(C)C4)cc1	.	0	-8	5	-9	-7	-8	.
COc1ccc(CNCCCn2cnc3c(SC)ncnc32)cc1	.	.	1	.	-20	3	.	-3
COC(=O)c1cc(C(=O)OCC(=O)NNC(=O)c2cccs2)cc([N+](=O)[O-])c1	i	.	6	-12	-7	5	.	5
COc1ccccc1NS(=O)(=O)c1cc(NC(=O)COc2ccccc2)ccc1N1CCOCC1	.	.	2	-3	-11	-2	.	-106
CCCN(CCC)C(=O)CCSCCC(=O)N(CCC)CCC	i	-12	-2	-6	-15	5	-3	7
O=S(=O)(c1ccc(Cl)cc1)N1CCCC1c1nc(-c2cccc(Cl)c2)no1 (stereo not drawn)	i	-1	12	.	-7	-7	-6	-14
O=C1CNC(=S)N1CCc1ccc(Cl)cc1	i	0	-7	.	-8	5	-3	11
Oc1ccc[n+](/C=C\c2ccccc2)c1	i	.	3	-12	6	5	.	23
CCN(CC)CCNC(=O)c1sc2ncn(CC(=O)Nc3ccc(C)c(Cl)c3)c(=O)c2c1C	i	2	2	-5	.	-5	-2	3
Cc1c(Cl)cccc1NC(=O)c1nc(C)n(-c2cc(OC(C)C)c(Cl)cc2Cl)n1	i	11	-3	21	-16	-7	3	4
COc1cccc(CN2CC(C(=O)N(C)CCc3ccccc3)CCC2=O)c1 (stereo not drawn)	i	-2	1	1	12	3	7	7
O=S(=O)(CC(O)CS(=O)(=O)c1ccc(Cl)cc1)c1ccccc1 (stereo not drawn)	i	-7	0	-6	.	1	-7	-5
COc1cc2[nH]c(C(=O)NCC3CCCO3)cc2c(OC)c1OC (stereo not drawn)	i	9	7	-1	-13	4	0	-12
CN(C)CCNc1ncnc2c1sc1nc(-c3ccccc3)c3c(c12)CCCC3	i	-16	-10	52	24	-8	-7	2
Cc1cccc(N(CC(=O)NCCSc2nc3ccccc3s2)S(=O)(=O)c2ccccc2)c1	i	11	.	0	.	.	18	.
CCOc1ccc2nc(N3C(=O)CNC3=S)sc2c1	i	2	8	23	.	1	-8	18
CC1CN(C(=O)CSc2nnc(-c3ccccc3)o2)CC(C)O1 (stereo not drawn)	i	2	-2	.	-14	3	-2	-7
O=C(NC1CCCCCC1)C1c2ccccc2C(=O)N1Cc1cccs1 (stereo not drawn)	i	-1	0	-4	4	0	5	.

mol	Rce1 inh	eIF4H FP inh	MT1-MMP act inh	CSC inhib	UUG fidelity	MT1-MMP act inh RFP	PABP FP inh	Env fusion inh
CCOC(=O)NC(NS(=O)(=O)c1ccccc1)(C(=O)OCC)C(F)(F)F (stereo not drawn)	i	-8	3	-12	.	1	8	6
O=[N+]([O-])c1ccc(-c2nc(C(Cl)Cl)c3ccccc3n2)cc1	i	-9	-27	97*	-9	-26	-7	74*
Cc1nn(CCS(=O)(=O)c2ccc(Cl)cc2)c(C)c1Br	i	-4	-3	19	-3	-2	-7	22
COc1ccccc1NC(=O)C1CCN(C(=O)NCc2ccccc2)CC1	i	-4	-1	.	6	0	-2	-10
CCN(CC)S(=O)(=O)c1cccc(-c2nn(-c3ccccc3)cc2/C=C(\C#N)C(=O)NCc2ccco2)c1	i	7	10	0	-9	4	-12	-47
CC(C(=O)Nc1ccccc1-c1ccccc1)N1CCN(Cc2ccccc2)CC1 (stereo not drawn)	i	-7	-8	-25	.	-3	-1	-10
COC(=O)[C@H](Cc1ccccc1)NC(=O)N1CCN(c2ccc(F)cc2)CC1	i	2	-3	-4	-15	-2	-9	-4
O=S(=O)(c1cccc2cccnc12)N1CCCCC1	.	-3	0	-1	-15	3	6	3
Cc1ccc(NC2=C(Cl)C(=O)OC2OC(C)C)cc1 (stereo not drawn)	i	-2	-1	14	.	-3	?	8
OCC1(CC2CCCCO2)CCN(Cc2nc3ccccc3[nH]2)CC1 (stereo not drawn)	i	10	-7	-14	-22	-4	-9	-3
O=C(OCc1nnc(-c2ccccc2)o1)c1cccc(S(=O)(=O)N2CCOCC2)c1	i	.	0	-9	-5	2	.	1
COc1ccccc1C(=O)NC(=O)OCCn1c(C)cnc1[N+](=O)[O-]	i	7	3	-4	.	3	0	-3
CC(C)(C)CC(=O)Nc1nn[nH]n1	i	-8	12	-17	.	9	-8	14

# Gathered by group, the entries above containing a thiophene ring, fused or not
mol	Rce1 inh	eIF4H FP inh	MT1-MMP act inh	CSC inhib	UUG fidelity	MT1-MMP act inh RFP	PABP FP inh	Env fusion inh
CCOC(=O)C1CCCN(C(=O)c2cc(-c3ccccc3)cs2)CC1 (stereo not drawn)	.	.	-2	.	-14	1	.	-7
O=C(c1nn2c(C(F)(F)F)cc(-c3cccs3)nc2c1Cl)N1CCCc2ccccc21	i	2	-17	18	.	-8	-7	45
Cc1ccc(C(C(=O)NCc2ccco2)N(C(=O)CNC(=O)c2cccs2)c2ccc(C)cc2C)cc1 (stereo not drawn)	i	2	2	12	-15	-5	-6	.
N#Cc1c(NC(=O)COC(=O)c2ccc(S(=O)(=O)N3CCCC3)cc2)sc2c1CCCCC2	i	5	-1	.	-13	1	-3	-5
COc1ccc(Cn2c(=O)n(Cc3ccco3)c(=N)c3c4c(sc32)COC(C)(C)C4)cc1	.	0	-8	5	-9	-7	-8	.
COC(=O)c1cc(C(=O)OCC(=O)NNC(=O)c2cccs2)cc([N+](=O)[O-])c1	i	.	6	-12	-7	5	.	5
CCN(CC)CCNC(=O)c1sc2ncn(CC(=O)Nc3ccc(C)c(Cl)c3)c(=O)c2c1C	i	2	2	-5	.	-5	-2	3
CN(C)CCNc1ncnc2c1sc1nc(-c3ccccc3)c3c(c12)CCCC3	i	-16	-10	52	24	-8	-7	2
O=C(NC1CCCCCC1)C1c2ccccc2C(=O)N1Cc1cccs1 (stereo not drawn)	i	-1	0	-4	4	0	5	.

# These rows are one share of the data, so the mix of outcomes need not match the whole.
